# Bioassay records from PubChem BioAssay.
# Cruzain inh noDet = blocks cruzain activity in detergent-free assay. purified cruzain, Z-FR-AMC fluorescence, no detergent. Potency, µM, for inactives: max response, negative = inhibition, actives largely listed as inhibitors. hit rate 2.3% among 200,000. P25779;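 also: plate controls were enzyme without inhibitor for no effect and buffer without enzyme for full effect; nearly all actives have a fitted effect of over 40% in size; top concentration of the series not given in the record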
# Target sequence (P25779 123-467 limits assumed): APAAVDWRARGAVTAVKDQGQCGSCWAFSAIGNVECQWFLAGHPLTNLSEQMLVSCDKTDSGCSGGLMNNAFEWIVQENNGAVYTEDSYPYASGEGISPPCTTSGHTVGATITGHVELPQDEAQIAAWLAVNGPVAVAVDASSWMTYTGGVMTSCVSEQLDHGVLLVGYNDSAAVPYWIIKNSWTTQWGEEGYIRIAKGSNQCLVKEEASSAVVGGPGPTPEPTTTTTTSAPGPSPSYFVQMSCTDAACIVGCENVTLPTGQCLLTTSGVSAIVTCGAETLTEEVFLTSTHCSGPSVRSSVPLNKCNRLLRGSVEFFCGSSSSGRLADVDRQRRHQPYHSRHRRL
#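 Detergent-free condition (0.00005% Triton X-100) in acetate buffer pH 5.5 with DTT. 1.5 nM enzyme and compound were pre-mixed 15 min, then 2 uM Z-FR-AMC substrate added; reaction progress from fluorescence change between first and third reads (60 s).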
# SARS PLP yeast = SARS-CoV PLP inhibition in yeast | S. cerevisiae expressing SARS-CoV PLpro, growth rescue; control for the full effect not named in the record | Potency, µM (top dose mostly 32.9 µM), without a hit: at the highest dose activity, positive = growth rescue | hit rate 0.19% among 330,000 | AID 485353; active means well fitted rising curve with a large enough effect; inconclusive means small, poorly fitted or top-dose-only effect; inactive means no such curve, though single readings can be large or run the other way; also: 0% is about no effect; nearly all actives have a fitted effect of over 55% in size; growth read by luminescence after 48 h
# MARV entry inh = blocks Marburg virus binding to or entry into cells; AID 540276; Potency, µM (titrated, usually from 37.8 µM), inactives show at the top dose activity change, negative = inhibition, actives largely listed as inhibitors; Marburg virus pseudotyped entry inhibition, cell reporter; control for the full effect not named in the record; about a third of the inactives were read at about 46 µM; hit rate 1.8% among 300,000; active = well fitted inhibition curve with a large enough effect; inconclusive = small, poorly fitted or top-dose-only effect, or effect the other way; inactive = flat fitted curve, though single readings scatter; tested in HEK293 cells; about a fifth of its hits are not listed in these tables; also: % is scaled to controls: 0 for no effect and ±100 for the full control effect; luciferase read-out
# 2A StopGo = FMDV 2A StopGo reporter, luciferase signal | human cells with a luciferase reporter of 2A StopGo recoding; control for the full effect not named in the record | Potency, µM (titrated, usually from 57.9 µM), without a hit: top-dose signal change, negative = less light | hit rate 1.2% among 410,000 | AID 1159524; active = well fitted falling curve with a large enough effect; inconclusive = small, poorly fitted or top-dose-only effect; inactive = no such curve, though single readings can be large or run the other way; tested in HEK293T cells; also: % is scaled to controls: 0 for no effect and ±100 for the full control effect; nearly all actives have a fitted effect of over 45% in size; luciferase light after 4 h
# RE007 growth inh = less growth of the S. pombe RE007 Vpr strain; S. pombe RE007 Vpr strain, BacTiter-Glo ATP luminescence, 24 h; control for the full effect not named in the record; Potency, µM (titrated, usually from 92.2 µM), without a hit: top-dose activity change, negative = less growth; hit rate 0.21% among 360,000; AID 651644; active = well fitted falling curve with a large enough effect; inconclusive = small, poorly fitted or top-dose-only effect; inactive = no such curve, though single readings can be large or run the other way;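 also: % is scaled to controls: 0 for no effect and ±100 for the full control effect; nearly all actives have a fitted effect of over 50% in size; the assay follows cell death caused by Vpr and the record does not say whether a fall means rescue or toxicity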
#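 Fission yeast RE007 carrying one integrated HIV-1 vpr copy, seeded at OD 0.01 in PMG+AL medium with 23 nL pinned compound. Grown 24 h at 30 degrees; viability read by BacTiter-Glo luminescence after 5 min.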
# Cruzain Triton = blocks cruzain activity in presence of Triton detergent; P25779; purified cruzain, Z-FR-AMC fluorescence, 0.01% Triton; Potency, µM, without a hit: max response, negative = inhibition, most hits filed as inhibitors; hit rate 0.43% among 200,000;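 also: plate controls were neutral wells for no effect and buffer without enzyme for full effect; nearly all actives have a fitted effect of over 40% in size; top concentration of the series not given in the record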
#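 Compounds were screened in titration against cruzain (1.5 nM) with 0.01% Triton X-100 to counter colloidal aggregation. Activity was the AMC fluorescence increase over 60 s after adding 2 uM Z-FR-AMC at pH 5.5.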
# NS1 function inh = influenza NS1 inhibition; S. cerevisiae slowed by influenza A NS1, growth recovery by OD600; Potency, µM (doses to about 46.1 µM), for the others: at the top dose activity, positive = more growth; hit rate 0.4% among 270,000; active means well fitted rising curve with a large enough effect; inconclusive means small, poorly fitted or top-dose-only effect; inactive means no such curve, though single readings can be large or run the other way; also: nearly all actives have a fitted effect of over 50% in size
#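 Compounds were scored for reversing the slow growth caused by influenza A NS1 in S. cerevisiae, measured by optical density at 600 nm. Assay medium contained 2% galactose at pH 6.0; NS1-free yeast of the same strain were the positive control.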
# Lassa entry inh = Lassa virus entry inhibition | Lassa virus pseudotype entry inhibition, cell reporter; control for the full effect not named in the record | Potency, µM (top dose mostly 37.9 µM), inactives show at the top dose activity change, negative = inhibition, hits mostly inhibitors | hit rate 1.2% among 300,000 | AID 540256; active means well fitted inhibition curve with a large enough effect; inconclusive means small, poorly fitted or top-dose-only effect, or effect the other way; inactive means flat fitted curve, though single readings scatter; tested in HEK293 cells; also: % is scaled to controls: 0 for no effect and ±100 for the full control effect; nearly all actives have a fitted effect of over 50% in size; luciferase read-out
# Starred values were filed as active, the others as inactive; ? = inconclusive; . = no result given; & = joins results of further samples; [ ] = another dose, or the depositor's remark. Unless noted, calls follow the shape of the dose curve; as a rule, active = well fitted curve in the direction sought with a large enough effect; inconclusive = small, poorly fitted or top-dose-only effect, or another doubt; inactive = no such curve, though single readings can be large; an effect the other way counts as inactive or inconclusive. Potency is read from the fitted curve at half-maximal effect.
molecule,NS1 function inh,Lassa entry inh,Cruzain Triton,RE007 growth inh,MARV entry inh,2A StopGo,SARS PLP yeast,Cruzain inh noDet
CCC1(CC)Cc2ccccc2C(N)=C1C#N,-8%,-8%,-7.8%,-2%,-23%,-26%,-13%,-14%
CC1CCCCC1NS(=O)(=O)c1ccc(S(=O)(=O)NCc2ccncc2)cc1 (stereo not given),?,?,0.6%,-2%,?,-19%,5%,-9%
Cc1oc(-c2ccccc2Cl)nc1CS(=O)CC(=O)NCc1cccs1 (stereo not given),-7%,.,3.3%,5%,.,19%,2%,3%
O=C(O)c1ccc2c(=O)n3c(nc2c1)/C(=C/c1ccccc1C(F)(F)F)CCCC3,21%,-27%,-7.0%,4%,?,-12%,-25%,-11%
CCCCn1c(SCC(=O)N2CCCC2)nc2cc(S(N)(=O)=O)ccc21,.,12%[46.1 µM],.,-18%,?,1%,0%,.
COC(=O)CN1C(=S)N(c2ccc(Cl)cc2)C(=O)C1CC(=O)Nc1ccc(F)cc1 (stereo not given),-10%,11%,-9.6%,1%,24%,-17%,5%,-3%
O=C(CSc1nnc(-c2c[nH]c3ccccc23)o1)c1ccc(-c2ccccc2)cc1,?,?,-0.7%,1%,-31%,-15%,?,5µM*
CCOC(=O)C1CCN(c2nc3c(C)cccn3c(=O)c2/C=C(\C#N)S(=O)(=O)c2ccccc2)CC1,21%,-22%,.,7%,?,-15%,0%,.
CCN(CC)S(=O)(=O)c1cc(-c2nn(C)c(=O)c3ccccc23)ccc1C,-19%,?,-3.4%,3%,-21%,-12%,2%,?
COc1ccccc1N(Cc1ccccc1)S(=O)(=O)c1cccc(C(=O)Nc2ccc(C)cn2)c1,.,?,.,4%,?,-3%,3%,.

molecule,NS1 function inh,Lassa entry inh,Cruzain Triton,RE007 growth inh,MARV entry inh,2A StopGo,SARS PLP yeast,Cruzain inh noDet
CC(C)[C@@H]1NC(=O)c2cc([N+](=O)[O-])cc(I)c2NCCC[C@@H](C(N)=O)NC(=O)[C@H](CO)NC1=O,5%,4%,?,-3%,45%,-17%,-15%,7%
O=C(O)CSCC(=O)N1CCCN(c2ccc(C(F)(F)F)cn2)CC1,6%,4%[46.1 µM],.,12%,2%[46.1 µM],-11%,-1%,.
COc1ccc(-c2nnc3sc(C(C)N4C(=O)c5ccccc5C4=O)nn23)cc1 (stereo not given),-34%,.,-1.9%,-13%,.,-16%,-21%,17%
COc1ccc(CNC(=O)Cc2csc3nc(-c4ccc(F)cc4)cn23)cc1,.,0%[46.1 µM],-2.0%,.,.,-20%,.,-18%
COCCN(CC(=O)Nc1ccccc1C)S(=O)(=O)c1ccc(S(=O)(=O)N2CCCC2)cc1,-4%,-30%,5.6%,-17%,-10%,-20%,3%,4%
COc1ccc(S(=O)(=O)N2CCOC23CCN(S(=O)(=O)c2cc(C)ccc2OC)CC3)cc1,.,16%,.,-4%,3%,12%,.,.
O=C(NNS(=O)(=O)c1ccccc1F)c1sccc1-n1cccc1,.,8%[46.1 µM],.,5%,-10%[46.1 µM],25%,0%,.
CCC(C)Sc1nc2c(c(=O)[nH]c(=O)n2C)n1CCc1ccccc1 (stereo not given),-6%,?,-1.5%,0%,?,?,-7%,-8%
Cc1cc(Cl)ccc1OCC(=O)N(Cc1sccc1C)C1CCS(=O)(=O)C1 (stereo not given),.,-6%[46.1 µM],-3.1%,.,-22%[46.1 µM],-25%,.,-13%
Fc1ccccc1OCCn1c(=S)[nH]c2ccccc21,-1%,4%,.,3%,17%,50%[activator],?,.

molecule,NS1 function inh,Lassa entry inh,Cruzain Triton,RE007 growth inh,MARV entry inh,2A StopGo,SARS PLP yeast,Cruzain inh noDet
CCN(Cc1nc(-c2ccc(OC)cc2)oc1C)S(=O)(=O)c1ccc(Cl)cc1,.,?,-5.2%,.,.,?,.,-8%
O=S(=O)(c1ccc(S(=O)(=O)N2CCN(C/C=C/c3ccccc3)CC2)cc1)N1CCCC1,-4%,9%,1.7%,-7%,6%,-17%,0%,?
COc1ccccc1NC(=S)NCCc1ccc(F)cc1,-5%,8%[46.1 µM],.,2%,15%[46.1 µM],-8%,1%,.
O=C(NNC(=O)c1ccc(S(=O)(=O)N2CCCCC2)cc1)c1ccccc1,-6%,-17%,.,-2%,8%[46.1 µM],-6%,22%,.
CC(C)=CC(=O)N1CCC(N2CCC(C(=O)NCC3CCCO3)CC2)CC1 (stereo not given),2%,?,.,-11%,2%[46.1 µM],5%,-4%,.
COCC(=O)N1CCC(Oc2cccc(C(=O)NCc3ccccn3)c2)CC1,10%,.,.,-6%,.,-12%,2%,.
O=P1(NCCCn2cc[n+](Cc3nc4ccccc4[nH]3)c2)C=C(c2ccccc2)OC(c2ccccc2)=C1,-4%,-15%,.,13%,10%[46.1 µM],-10%,-3%,.
O=C1C(Oc2ccc(Cl)cc2)C(c2ccc3c(c2)OCO3)N1CC1CCCO1 (stereo not given),-7%,.,.,-21%,.,?,0%,.
COc1cccc(OC)c1C(=O)N1CCNCC1,7%,8%,.,1%,?,1%,-2%,.
Nc1nc(-c2ccco2)nc(N2CCCCC2)n1,4%,11%,-1.3%,17%,11%,43%[activator],14%,-17%

# Record cards (already shown).
# O=P1(NCCCn2cc[n+](Cc3nc4ccccc4[nH]3)c2)C=C(c2ccccc2)OC(c2ccccc2)=C1 across the screens: NS1 function inh: -4%; Lassa entry inh: -15%; Cruzain Triton: .; RE007 growth inh: 13%; MARV entry inh: 10%[46.1 µM]; 2A StopGo: -10%; SARS PLP yeast: -3%; Cruzain inh noDet: .
# COc1cccc(OC)c1C(=O)N1CCNCC1 across the screens: NS1 function inh: 7%; Lassa entry inh: 8%; Cruzain Triton: .; RE007 growth inh: 1%; MARV entry inh: ?; 2A StopGo: 1%; SARS PLP yeast: -2%; Cruzain inh noDet: .

# Two entries drawn at random from the list so far, as already listed:
molecule,NS1 function inh,Lassa entry inh,Cruzain Triton,RE007 growth inh,MARV entry inh,2A StopGo,SARS PLP yeast,Cruzain inh noDet
CCN(Cc1nc(-c2ccc(OC)cc2)oc1C)S(=O)(=O)c1ccc(Cl)cc1,.,?,-5.2%,.,.,?,.,-8%
CC(C)=CC(=O)N1CCC(N2CCC(C(=O)NCC3CCCO3)CC2)CC1 (stereo not given),2%,?,.,-11%,2%[46.1 µM],5%,-4%,.

# (continued)
molecule,NS1 function inh,Lassa entry inh,Cruzain Triton,RE007 growth inh,MARV entry inh,2A StopGo,SARS PLP yeast,Cruzain inh noDet
Cc1cc(C(C)(C)C)cc(C)c1COC(=O)C1CCC(=O)N1 (stereo not given),-7%,?,-2.0%,17%,?,?,-1%,?
Cc1cc([N+](=O)[O-])c(C)cc1-c1ccc(/C=N/n2cnnc2)o1,12%,16%[46.1 µM],.,-5%,12%[46.1 µM],-11%,0%,.
CC1=CCC(C(=O)O)C(C(=O)Nc2nc3ccc(S(C)(=O)=O)cc3s2)C1 (stereo not given),?,2%,3.9%,24%,9%,12%,13%,-6%
CCOc1ccc(CCNC(=O)CN(c2ccc(C)cc2)S(=O)(=O)N(C)C)cc1OCC,.,-1%[46.1 µM],-1.8%,.,2%[46.1 µM],0%,.,?
CCc1nc2ccccc2c(C(=O)Nc2ccc(C)cc2)c1C,-8%,.,.,-3%,.,-9%,-2%,.
CN(C(=O)COc1ccc(Cl)cc1Cl)c1nnc(C23CC4CC(CC(C4)C2)C3)s1,7%,-1%,-1.3%,0%,19%,-6%,0%,?
O=C(O)C1CCN(C(=O)c2ccccc2N2C(=O)[C@@H]3Cc4c([nH]c5ccccc45)C(c4cccc(Cl)c4)N3C2=O)CC1 (stereo not given in full),-35%,.,.,13%,.,-8%,4%,.
O=C(NCCN1CCC(Cc2ccccc2)CC1)C1CCCN(S(=O)(=O)c2cnc[nH]2)C1 (stereo not given),0%,.,4.1%,-5%,-1%,0%,-5%,-11%
C=CCNC(=O)/C(=C\c1ccc2c(c1)OCO2)NC(=O)c1ccc(Br)cc1,-2%,?,2.5%,-6%,14%,-10%,-5%,-3%
CC(C)CCOc1ncnc2c1sc1nc3c(cc12)CSC(C)(C)C3,2%,?,-6.8%,-3%,36%,-23%,-1%,?

molecule,NS1 function inh,Lassa entry inh,Cruzain Triton,RE007 growth inh,MARV entry inh,2A StopGo,SARS PLP yeast,Cruzain inh noDet
COc1ccccc1NC(=O)N(Cc1ccco1)Cc1cc2c(C)ccc(C)c2[nH]c1=O,15%,0%,-14%,-7%,1%&1%,-20%,12%,-12%
CC1CCN(C(=O)Nc2ccc3nsnc3c2)CC1,-3%,2%,-0.5%,-10%,3%,.,-2%,-9%
Cc1ccc(C(=O)Nc2ccc(S(=O)(=O)N3CCN(C)CC3)cc2)cc1,-9%,1%,-1.5%,-2%,1%,5%,3%,-3%
Cc1ccc(C)c(NC(=O)CSc2nc3ccccc3nc2N2CCOCC2)c1,6%,9%[46.1 µM],-0.7%,-2%,?,-1%&-14%,-10%,16%
COCCN(CC(=O)NCc1ccc(F)cc1)C(=O)CCC(=O)Nc1nccs1,1%,5%,-2.5%,29%,0%,-11%,-1%,-6%
CCOC(=O)c1cc2c(ccc3nc(C)c(C)c32)[nH]c1C,-1%,.,.,-12%,.,2%,-1%,.
CCOc1ccc(N=C2NC(=O)S/C2=C\c2ccc(O)cc2)cc1,-2%,13%,1.0%,4%,11%,-10%,4%,-1%
CCCCCC1CCC(C(=O)NNC(=S)NCC)CC1 (stereo not given),17%,-19%,-0.4%,14%,5%,?,0%,-2%
Cn1c(=O)[nH]c2c(cnn2C)c1=O,.,2%,.,0%,3%,-11%,.,.
O=C1CC(N2CCN(C3CCc4ccccc4C3)CC2)C(=O)N1c1ccccc1 (stereo not given),0%,8%,.,-10%,10%,-3%,.,.
CC(=O)Nc1cccc(-n2nnc(SCC(=O)Nc3ccccc3)n2)c1,6%,.,.,31%,.,12%,1%,.
CCN1CCN(C(=S)c2ccc(Br)cc2)CC1,8%,-28%[14.3 µM],4.1%,4%,22%,0%,?,4%
Cn1cc([N+](=O)[O-])c(C(=O)NC2CCCC2)n1,0%,?,.,4%,-1%[46.1 µM],-1%,-3%,.
